MITF inh – inhibitors of MITF, primary screen, MITF inhibitor project, cell-based, luminescence. inhibition, % (test concentration not listed). 0.28% of 37,000 active. TRPM1 promoter luciferase, 24 h;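 active = most replicates at 85% or more, or half of them and the mean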;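 also: human melanocyte line stably carrying TRPM1 promoter luciferase reporter; 0% = vehicle wells and 100% = a positive control; the first replicate is given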
YB-1 expression – inhibitors of YB-1 gene expression, primary screen, cell-based, fluorescence | AID 434959, 2010 | 0.37% of 30,000 active | delta delta Cp (YB-1 minus CDIP) (concentration not given with the values) | U2OS, qRT-PCR YB-1 vs CDIP delta delta Cp, 16 h; active compounds read high; zero = DMSO, each unit about twofold;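 active = delta delta Cp rounded down to an integer at or above 3, about 3 SD of DMSO wells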;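 also: higher means less YB-1 transcript or more CDIP transcript relative to DMSO; stock transfer was 100 nL into about 100 µL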
PD-1 reversal – activators reversing PD-1 mediated T-cell inhibition, primary screen, luminescence, primary human CD4 T cells, PD-L1 beads | 29,000 tested, under 10 active | CellTiter-Glo 96 h | AID 2316, 2010 | activation, % (concentration not given with the values);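 active = replicate mean of 50% or more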;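 also: 0% = median vehicle wells and 100% = positive control; 100 nL library stock added to about 50 µL; numbers are from one replicate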
Hedgehog inh – Hedgehog pathway signaling inhibitors, primary screen, luminescence, Shh-LIGHT2 cells, Gli-luciferase. Shh-LIGHT2 Gli-luciferase reporter, 30 h. 2.1% of 22,000 active. inhibition, % (test concentration not listed). AID 2313, 2010;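 active = replicate mean of 65% or more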;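 also: pathway switched on by Shh-conditioned medium diluted 1 in 25 in low serum; 100 nL library stock added to about 40 µL; 0% = median of neutral wells and 100% = positive control level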
The depositor's hits bear a star; · = no result given. An excerpt; count on the stated rates, not on these rows.

SMILES	MITF inh	YB-1 expression	PD-1 reversal	Hedgehog inh
COc1ccc(CN(C)C[C@@H]2Oc3ccc(NC(=O)C4CCCCC4)cc3CC(=O)N([C@@H](C)CO)C[C@@H]2C)cc1	-15.7	0.119	·	-4.1
COc1ccc2oc(=O)c(-c3cnc(C)s3)cc2c1	-21.0	-0.292	0.6	·
COc1ccc(NC(=O)Nc2ccc3c(c2)CC(=O)N([C@H](C)CO)C[C@@H](C)[C@H](CN(C)C)O3)cc1	-3.5	0.106	·	-12.0
COc1ccc(CN(C)C[C@H]2Oc3ccc(NC(=O)Cc4cn(C)c5ccccc45)cc3C(=O)N([C@@H](C)CO)C[C@@H]2C)cc1	17.1	0.392	4.3	·
COC(=O)c1ccsc1NC(=O)CN1c2cccc3cccc(c23)S1(=O)=O	55.0	·	-2.7	·
Cc1ccccc1CN1C(=O)C(O)(CC(=O)c2ccncc2)c2cc(Cl)ccc21 (configuration not stated)	15.7	·	-7.5	·
CS(=O)(=O)N(CC(=O)Nc1ccc(F)cc1)c1cccc(Br)c1	-3.2	·	-0.1	·
CCC(C(N)=O)c1ccccc1 (configuration not stated)	15.1	0.00632	·	20.9
COC(=O)c1c(NC(=O)CSc2ncn[nH]2)sc2c1CCCC2	18.0	·	-2.2	·
Cc1ccc(C(Nc2ccccn2)c2ccc3ccc(C)nc3c2O)cc1 (configuration not stated)	54.1	·	-15.5	·
C[C@@H]1CN([C@H](C)CO)C(=O)c2cccc(NS(C)(=O)=O)c2O[C@@H]1CN(C)C(=O)Nc1ccccc1	-10.4	-0.277	0.3	20.1
CC(C)NC(=O)N(C)C[C@@H]1Oc2ccc(NC(=O)Nc3cccc4ccccc34)cc2C(=O)N([C@@H](C)CO)C[C@@H]1C	0.0	0.21	0.9	·
C[C@@H]1CN([C@@H](C)CO)C(=O)c2cccc(NC(=O)c3cnccn3)c2O[C@H]1CN(C)C(=O)Nc1ccc(F)cc1	-3.4	-0.616	·	-17.3
C[C@H](CO)N1C[C@H](C)[C@H](CN(C)CC2CCCCC2)Oc2ccc(NC(=O)Cc3cn(C)c4ccccc34)cc2C1=O	-8.6	-0.0171	·	·
O=C1CCc2c(ccc3ccccc23)O1	11.6	-0.361	·	-12.0
CC(C)NC(=O)Nc1ccc2c(c1)C(=O)N([C@H](C)CO)C[C@H](C)[C@H](CN(C)CC1CC1)OCCCC[C@@H](C)O2	-5.3	-0.00378	0.8	-39.5
C[C@H]1CN([C@@H](C)CO)C(=O)c2cccc(NC(=O)C3CCOCC3)c2O[C@@H]1CN(C)S(=O)(=O)c1cccs1	-8.5	0.119	1.1	-6.5
C[C@H](CO)N1C[C@H](C)[C@@H](CN(C)Cc2ccccc2)Oc2c(NC(=O)c3cnccn3)cccc2C1=O	-0.8	0.0961	-0.3	-3.7
COc1ccc(NC(=O)Nc2ccc3c(c2)C(=O)N([C@@H](C)CO)C[C@@H](C)[C@H](CN(C)Cc2ccc(-c4ccccc4)cc2)O3)cc1	-10.2	0.731	-1.9	35.1
C[C@@H]1CN([C@H](C)CO)C(=O)c2cc(N(C)C)ccc2O[C@@H]1CN(C)Cc1ccc(Cl)c(Cl)c1	-5.2	0.024	1.5	0.2

Part of the list above, in markdown:
| structure | MITF inh | YB-1 expression | PD-1 reversal | Hedgehog inh |
| --- | --- | --- | --- | --- |
| C[C@H](CO)N1C[C@H](C)[C@@H](CN(C)Cc2ccccc2)Oc2c(NC(=O)c3cnccn3)cccc2C1=O | -0.8 | 0.0961 | -0.3 | -3.7 |
| C[C@@H]1CN([C@@H](C)CO)C(=O)c2cccc(NC(=O)c3cnccn3)c2O[C@H]1CN(C)C(=O)Nc1ccc(F)cc1 | -3.4 | -0.616 | · | -17.3 |
| Cc1ccccc1CN1C(=O)C(O)(CC(=O)c2ccncc2)c2cc(Cl)ccc21 (configuration not stated) | 15.7 | · | -7.5 | · |
| COc1ccc(NC(=O)Nc2ccc3c(c2)C(=O)N([C@@H](C)CO)C[C@@H](C)[C@H](CN(C)Cc2ccc(-c4ccccc4)cc2)O3)cc1 | -10.2 | 0.731 | -1.9 | 35.1 |
| COC(=O)c1ccsc1NC(=O)CN1c2cccc3cccc(c23)S1(=O)=O | 55.0 | · | -2.7 | · |
| C[C@@H]1CN([C@H](C)CO)C(=O)c2cc(N(C)C)ccc2O[C@@H]1CN(C)Cc1ccc(Cl)c(Cl)c1 | -5.2 | 0.024 | 1.5 | 0.2 |

Carrying on:
SMILES	MITF inh	YB-1 expression	PD-1 reversal	Hedgehog inh
COc1ccc(S(=O)(=O)Nc2ccc3c(c2)C(=O)N([C@H](C)CO)C[C@@H](C)[C@H](CN(C)C(=O)Nc2ccc4c(c2)OCO4)O3)cc1	-10.7	0.603	0.8	·
C[C@@H]1CCCCO[C@H](CN(C)C(=O)c2ccccc2)[C@@H](C)CN([C@H](C)CO)C(=O)c2cc(NC(=O)C3CCCCC3)ccc2O1	5.7	0.26	0.5	4.9
CN(C)c1nc(SCCO)nc(N(C)C)n1	16.8	·	0.0	·
Cc1ccc(S(=O)(=O)N(C)C[C@H]2Oc3ccc(NS(=O)(=O)c4ccccc4)cc3C(=O)N([C@@H](C)CO)C[C@H]2C)cc1	-2.9	0.483	-0.7	7.2
C/C(=C\C=C\C(C)C)CCC/C(C)=C/COc1c(O)cc2c(c1O)CNC2=O	31.8	0.486	-2.1	-1.6
C[C@@H]1CN([C@@H](C)CO)C(=O)c2cccc(NC(=O)C3CC3)c2O[C@@H]1CN(C)C	-3.3	-0.27	0.0	-11.5
C[C@H]1CN([C@@H](C)CO)C(=O)c2cc(NC(=O)Nc3ccc(C(F)(F)F)cc3)ccc2O[C@H]1CN(C)Cc1ccc(Cl)c(Cl)c1	34.7	0.294	0.3	40.7
COc1ccc(S(=O)(=O)Nc2ccc3c(c2)CC(=O)N([C@@H](C)CO)C[C@@H](C)[C@@H](CN(C)S(=O)(=O)c2c(C)noc2C)O3)cc1	-11.4	0.0903	-1.1	-2.4
Cc1ccc(S(=O)(=O)N(C)C[C@H]2Oc3ccc(NC(=O)c4ccncc4)cc3CC(=O)N([C@@H](C)CO)C[C@@H]2C)cc1	2.1	0.257	0.8	·
COc1ccc(S(=O)(=O)N(C)C[C@@H]2Oc3ccc(NC(=O)CCN4CCOCC4)cc3CC(=O)N([C@H](C)CO)C[C@H]2C)cc1	5.2	0.164	·	-14.1
C[C@@H]1CN([C@H](C)CO)C(=O)c2cc(NS(=O)(=O)c3ccc(Cl)cc3)ccc2O[C@H]1CN(C)S(C)(=O)=O	-1.5	0.314	·	-20.5
CCOC(=O)c1cnn2c(C(F)(F)F)cc(C)nc12	7.3	-0.121	0.2	-15.6
C[C@@H]1CN([C@@H](C)CO)C(=O)c2cc(NS(=O)(=O)c3cn(C)cn3)ccc2O[C@H]1CN(C)Cc1ccc(C(=O)O)cc1	-11.6	-0.151	3.0	·
S=C(NC1CCCCC1)C(=S)NC1CCCCC1	-44.5	0.033	-0.1	-22.1
CN1C(=O)c2ccc(C(=O)Nc3ccc(OCC(=O)O)cc3)cc2C1=O	-10.6	·	-0.1	·
C[C@@H]1CN([C@H](C)CO)C(=O)Cc2cc(NC(=O)NC3CCCCC3)ccc2O[C@H]1CN(C)S(=O)(=O)c1ccc(Cl)cc1	-10.5	0.129	-0.3	-21.3
Cc1cc(C)c2c(=O)[nH]c(SCC(=O)NCc3ccccc3)nc2n1	7.2	·	0.6	·
C[C@@H]1CN([C@@H](C)CO)C(=O)c2cc(NC(=O)C3CCCCC3)ccc2O[C@@H]1CN(C)Cc1ccccc1	-3.8	0.118	1.6	·
C[C@H](CO)N1C[C@H](C)[C@@H](CN(C)C(=O)Nc2cccc3ccccc23)Oc2c(NC(=O)Nc3ccccc3)cccc2C1=O	-1.6	0.312	1.1	2.0
C=CCn1c2ccccc2c2nnc(SCC(=O)c3ccc(Cl)cc3)nc21	48.2	·	-2.2	·
CN(CCc1ccccn1)c1ccc([N+](=O)[O-])cn1	-28.5	·	3.0	·
Cc1ccc(N(C(C)C(=O)Nc2ccc(Cl)cc2)S(C)(=O)=O)cc1C (configuration not stated)	12.3	·	-1.3	·
Cc1ccc(S(=O)(=O)N(C)C[C@@H]2Oc3ccc(NS(=O)(=O)c4ccc(Cl)cc4)cc3CC(=O)N([C@@H](C)CO)C[C@@H]2C)cc1	1.9	0.123	0.0	45.5
C[C@@H]1CN([C@H](C)CO)C(=O)Cc2cc(NS(=O)(=O)c3ccccc3)ccc2O[C@@H]1CN(C)C(=O)Nc1ccc(C(F)(F)F)cc1	-13.6	0.16	-1.8	2.8
C[C@H]1CN([C@@H](C)CO)C(=O)Cc2cc(NC(=O)Nc3ccc(C(F)(F)F)cc3)ccc2O[C@@H]1CN(C)C(=O)Nc1cccc2ccccc12	22.1	-0.178	0.0	35.3
Cc1cc(C(=O)Nc2cccc3c2O[C@@H](CN(C)C(=O)NC2CCCCC2)[C@@H](C)CN([C@H](C)CO)C3=O)n(C)n1	-10.0	0.429	-2.6	-5.0
COc1ccccc1CNS(=O)(=O)c1cc(C)ccc1OC	-13.6	·	0.6	·
C[C@H]1CN([C@@H](C)CO)C(=O)Cc2cc(NC(=O)Nc3ccc(C(F)(F)F)cc3)ccc2O[C@@H]1CN(C)Cc1ccc2c(c1)OCO2	-0.9	-0.217	·	-1.0
CCOc1ccc2nc(SCC(=O)Nc3ccc([N+](=O)[O-])cc3)[nH]c2c1	-8.7	·	3.6	·
C[C@H]1CN([C@@H](C)CO)C(=O)c2cccc(NS(C)(=O)=O)c2O[C@@H]1CN(C)C(=O)Nc1ccc2c(c1)OCO2	-3.8	-0.816	2.0	-32.7
COc1ccc(S(=O)(=O)Nc2ccc3c(c2)C(=O)N([C@H](C)CO)C[C@H](C)[C@@H](CN(C)Cc2ccc(-c4ccccc4)cc2)O3)cc1	-4.9	-0.346	-2.1	·
C[C@H](CO)N1C[C@H](C)[C@H](CN(C)S(=O)(=O)c2ccc(F)cc2)Oc2ccc(NS(=O)(=O)c3ccccc3)cc2C1=O	-12.7	2.1	-2.8	-3.4
C/C=C(\C)C(=O)OC1CCC(=O)OC1/C=C/C(O)C(C)O (configuration not stated)	4.3	-0.264	-1.3	-33.6
Cc1ccc(S(=O)(=O)Nc2ccc3c(c2)C(=O)N([C@@H](C)CO)C[C@H](C)[C@H](CN(C)S(C)(=O)=O)O3)cc1	-2.7	-0.129	2.4	·
C[C@@H]1CN([C@H](C)CO)C(=O)Cc2cc(NC(=O)NC3CCCCC3)ccc2O[C@@H]1CN(C)S(C)(=O)=O	1.0	-0.332	·	44.1
C[C@H]1CN([C@@H](C)CO)C(=O)Cc2cc(NC(=O)C3CCCCC3)ccc2O[C@@H]1CN(C)CC1CC1	-15.2	-0.143	-0.1	-9.6
C[C@@H]1O[C@@H](O[C@H]2[C@H](OC(=O)[C@]34CCC(C)(C)C[C@H]3C3=CCC5[C@@]6(C)C[C@H](O)[C@H](O[C@@H]7O[C@H](CO)[C@@H](O)[C@H](O)[C@H]7O)[C@@](C)(CO)C6[C@H](O)C[C@@]5(C)[C@]3(C)CC4)OC[C@H](O)[C@@H]2O)[C@H](O)[C@H](O)[C@H]1O[C@@H]1OC[C@@H](O)[C@H](O[C@@H]2OC[C@](O)(CO)[C@H]2O)[C@H]1O (some centres not stated)	-10.0	-0.063	-6.0	4.7
Cc1ccc(Cl)cc1N(CC(=O)Nc1cccc([N+](=O)[O-])c1C)S(C)(=O)=O	-1.5	·	-0.5	·
COc1ccc(NC(=O)Nc2cccc3c2O[C@H](CN(C)Cc2ccc(C(F)(F)F)cc2)[C@@H](C)CN([C@H](C)CO)C3=O)cc1	15.9	0.539	-1.8	4.7
Cc1nc(N=C(N)N)nc2ccccc12	21.0	0.16	-0.1	-4.6
CC1=CC(=O)OC(c2ccccc2)C1 (configuration not stated)	6.4	-0.0151	1.1	36.3
C[C@H]1CN([C@@H](C)CO)C(=O)Cc2cc(NC(=O)CCN3CCOCC3)ccc2O[C@@H]1CN(C)S(C)(=O)=O	-4.9	-0.114	·	-13.2
CC(=O)Nc1cccc(NC(=O)c2cccc(Cn3cc(Cl)cn3)c2)c1	13.7	·	0.7	·
CCC(c1nc2ccccc2c(=O)n1-c1ccccn1)N1C(=O)c2ccccc2C1=O (configuration not stated)	-4.4	·	1.1	·
CNC[C@@H]1Oc2ccc(NC(=O)Nc3c(C)noc3C)cc2CC(=O)N([C@@H](C)CO)C[C@@H]1C	-13.8	0.122	3.1	-8.2
Cc1noc(C)c1NC(=O)Nc1ccc2c(c1)CC(=O)N([C@@H](C)CO)C[C@@H](C)[C@@H](CN(C)Cc1ccc(Oc3ccccc3)cc1)O2	0.1	-0.119	0.3	·
COc1ccccc1OCC(=O)Nc1cccc(-c2nnc(-c3ccccc3)o2)c1	-99.5	·	0.7	·
C[C@@H]1CN([C@@H](C)CO)C(=O)c2cc(N(C)C)ccc2O[C@H]1CN(C)Cc1ccc(C(=O)Nc2ccccc2N)cc1	44.7	-0.11	-3.7	·
Cc1nn2c(CN(C(=O)CN3CCOCC3)c3ccccc3)nnc2c2ccccc12	-8.6	·	2.7	·
CC(=O)[C@H]1CCC2[C@@H]3CCC4=CC(=O)CC[C@]4(C)C3CC[C@@]21C (some centres not stated)	13.0	-0.00197	-4.3	22.6
COc1ccc(NC(=O)C2CC(c3ccccc3O)=NO2)cc1OC (configuration not stated)	-25.7	·	1.5	·
